StopGo FLuc: Primary qHTS Assay for Foot and Mouth Disease Virus Antivirals against NCGC Sytravon and CBC Compound Libraries: Firefly Luciferase Signal. 120,000 compounds, 0.23% hits. HEK cells with a luciferase reporter of 2A StopGo recoding. Potency, µM (top dose mostly 57.5 µM), inactives show top-dose signal change, negative = less light; active = well fitted falling curve with a large enough effect; inconclusive = small, poorly fitted or top-dose-only effect; inactive = no such curve, though single readings can be large or run the other way; further: nearly all actives have a fitted effect of over 60% in size; overnight with compound
2A Renilla: Primary qHTS Assay for Foot and Mouth Disease Virus Antivirals against NCGC Sytravon and CBC Compound Libraries: Renilla Luciferase Signal; 120,000 compounds, 0.32% hits; HEK cells with a luciferase reporter of 2A StopGo recoding; Potency, µM (highest dose often 57.5 µM), inactives show at the top dose signal change, negative = less light; AID 1745857, 2022; active means well fitted falling curve with a large enough effect; inconclusive means small, poorly fitted or top-dose-only effect; inactive means no such curve, though single readings can be large or run the other way; further: nearly all actives have a fitted effect of over 55% in size; overnight with compound
* hit, by the source's call; ? = inconclusive; & = joins results of further samples; [ ] = dose if it differs, or a comment. On the % scale 0 is the no-effect control and ±100 the full control effect; potency means the concentration at half of the fitted maximal effect.

mol | StopGo FLuc | 2A Renilla
CCc1ccccc1NC(=O)C1CCCN(C(=O)c2cnn(-c3ccccc3)c2-n2cccc2)C1 (stereo not given) | -1% | 33%[activator]
COc1ccc(-c2nc3sc(CCNC(=O)C(=O)Nc4cc(C)cc(C)c4)c(C)n3n2)cc1 | 27% | -4%
COC(=O)c1ccc(N2C(=O)Cc3cc(OC)c(OC)cc3C2c2ccc(F)cc2)cc1 (stereo not given) | -15% | -1%
O=C(NCc1ccccc1)c1cccc(-c2cnc3ccccc3c2)c1 | 54%[activator] | 46%[activator]
COc1cccc(CN(C)C(=O)CCc2ncc(-c3ccc(F)cc3)o2)c1OC | 0% | 7%
COc1ccccc1C(=O)N1c2ccccc2C(C)(c2ccc(Cl)cc2)CC1(C)C (stereo not given) | -8% | ?
C[C@@H]1CCC[C@H](C)N1 | -10% | -7%
O=C(CSc1oc(-c2ccco2)nc1S(=O)(=O)c1ccc(Cl)cc1)Nc1ccc(F)cc1 | -16% | -8%
CCC(C(=O)NCc1ccccc1)n1nc(C)c2sc3ccccc3c2c1=O (stereo not given) | -14% | 27%
CCS(=O)(=O)N1CC(=O)N(c2ccc(Cl)cc2)C(C)(C(=O)NC2CCCCC2)C1 (stereo not given) | -23% | -12%
COc1cc(Cl)c(C)cc1NC(=O)c1ccc(CN2C(=O)CCn3nc(C)cc32)cc1 | 61%[activator] | 17%
Cc1ccc(-c2nn3c(C(C)C)nnc3c3ccccc23)cc1S(N)(=O)=O | 32%[activator] | -2%
COc1ccc(C(=O)CCC(=O)Nc2ccc(F)cc2F)cc1 | 15% | -13%
COc1ccc(C(=O)OCc2ccc(Br)cc2)cc1OC | 87%[activator] | 0%
CC(=O)c1ccc(N2CCN(S(=O)(=O)c3cc(-c4noc(C)n4)ccc3C)CC2)cc1 | 5% | -10%
Cc1nc(SC(C)C(=O)NCCC2=CCCCC2)nc(C)c1C (stereo not given) | 14% | -11%[1.06 µM]
Cc1nc(N2CCN(Cc3ccc4c(c3)OCO4)CC2)[nH]c(=O)c1Cc1cccc2ccccc12 | 1% | -4%
COc1ccc2nc(NC(=O)c3ccc(S(=O)(=O)N4CCCC(C)C4)cc3)sc2c1 (stereo not given) | 4% | 4%
O=C(NC1CC1)c1cccc(NC(=O)c2cc(=O)c3ccccc3o2)c1 | 16% | 10%
COCC(=O)N1CCN(c2oc(-c3ccco3)nc2C#N)CC1 | 3% | -8%
CC(C)C1C(=O)Nc2ccc(S(=O)(=O)NCc3ccc(Cl)cc3)cc21 (stereo not given) | ? | 61%[activator]
COCCCNCCOc1ccccc1-c1ccccc1 | 24% | -13%
Cc1nc(Oc2ccc(F)cc2Cl)c2oc3ccccc3c2n1 | -7% | -8%
Cc1cc(CS(=O)(=O)Cc2ccc(Cl)c(Cl)c2)on1 | -4% | -10%
N#Cc1ccccc1NC(=O)c1cnc2ccccc2n1 | 177%[activator] | -9%
CCOc1ccc(/C=C/c2nc(C#N)c(NC(C)c3ccccc3)o2)cc1 (stereo not given) | 9% | 21%
Cc1ccc(C)c(N2CC(c3nc4ccccc4[nH]3)CC2=O)c1 (stereo not given) | -15% | -11%
Cc1ccc2c(c1)C(O)(c1c(C)[nH]c3ccccc13)C(=O)N2 (stereo not given) | -7% | -9%
Cc1ccc(NC(=O)Cn2cnc3c(oc4ccccc43)c2=O)cc1 | -4% | -1%
CCSc1n[nH]c2nc3c(c(=O)n12)C(C)(CC)Cc1ccccc1-3 (stereo not given) | 5% | -7%
CCOC(=O)Cc1ccc(NC(=O)Nc2cc3c(cc2N2CCCCC2)n(C)c(=O)n3C)cc1 | -13% | -8%
COc1ccc(CNC(=O)Cn2c(=O)c3c(C)cc(C)nc3n(-c3ccccc3OC)c2=O)cc1 | -1% | -5%
COc1cccc(N2CC(NC(=O)c3cc(Cl)ccc3OC)CC2=O)c1 (stereo not given) | -2%&-23% | 4%&-5%
CCCC(=O)N1CCN(c2nc(C)c3c(c2C#N)CCCC3)CC1 | ? | ?
Cc1ccc(O)c(-c2ccnc3cc(-c4ccc(Cl)cc4)nn23)c1 | 21% | 13%
CCOc1ccc(NC(=O)CCCc2nnc3n(C)c(=O)c4sccc4n23)cc1 | -9% | -8%
Cc1ccc(-c2csc(=Nc3ccccc3)n2-c2ccccc2)cc1 | -30% | ?
Cc1cc(C)c2c(c1)C(=O)c1ccccc1-2 | 25% | 10%
Cc1cc(-c2nc3ncccc3o2)ccc1NC(=O)c1ccc(Br)cc1 | 4%&-15% | 0%&-5%
CNC(=O)NC(=O)CNc1cccc(C)c1C(=O)OC | -5% | -12%
COC(=O)c1ccc(Cl)cc1NC(=O)NCc1c(-n2cccc2)sc2c1CCCC2 | -2% | -9%
CCC(C)NC(=O)c1cc(SC)ccc1C (stereo not given) | 3% | 12%
CCN(CC)C(=O)c1ccccc1OCc1nc(-c2ccc(C)cc2)no1 | 25% | ?
CCCCCCCCCCCCCCCCO | -10% | -2%
COc1ccc(CNC(=O)CCC2N=C3c4ccccc4N=C(SCC(=O)NCCc4ccc(OC)c(OC)c4)N3C2=O)cc1 (stereo not given) | -7% | 2%
CC(=O)N(Cc1cc2cc(C)ccc2[nH]c1=O)CC(C)C | 0% | -9%
CCOc1cc(-c2nnc(SCC(=O)Nc3ccc(F)c(F)c3)nc2-c2ccc(OC)c(OCC)c2)ccc1OC | -3% | -5%
CC(Sc1cccc[n+]1[O-])C(=O)Nc1cccc2ccccc12 (stereo not given) | 29% | 0%
Cc1ccc2[nH]cc(C(C(=O)O)N3CCN(Cc4ccccn4)CC3)c2c1 (stereo not given) | -15% | -9%
Cc1ccccc1NC(=O)CSc1nc2ccccc2c2nc(CCn3cncc3C)nn12 | -18% | -14%
COc1cccc(CNC(=O)c2ccc3c(c2)c(C)c(C)n3Cc2ccccc2)c1OC | 5% | 1%
COC(=O)C(C)OC(=O)c1c[nH]c2cc(Br)c(Br)cc12 (stereo not given) | 5% | -4%
Cc1ccc2c(c1)-c1ccccc1C2=Nc1ccc2c(c1)Cc1ccccc1-2 | 70%[activator] | 5%
Cc1ccc(C)c(N2CCN(C(=O)c3cccn3-c3nnc(N4CCCCC4)s3)CC2)c1 | -23% | -10%
O=C(NC(C1CC1)C1CC1)c1ccc(F)c(F)c1 | 3% | -5%
Cc1c(Cl)ccc(S(=O)(=O)N2CCC(C(=O)O)CC2)c1Cl | 7% | 0%
COc1cccc(-c2nc(SCC(=O)NCC3CCCO3)c(-c3ccc(F)cc3)[nH]2)c1 (stereo not given) | -19% | -3%
Cc1ccc2[nH]c(=O)c(-c3noc(CCCC(=O)NC4CCCCC4)n3)cc2c1 | 7% | -1%
CC(C)Cn1nc(C(=O)N2CCCC2c2cccs2)c2ccccc2c1=O (stereo not given) | -2% | 33%[activator]
COc1ccc(NC(=O)C2(N(C)C(=O)Cc3nc(N)n[nH]3)CCCCC2)cc1 | 4% | -7%

In the list so far, these have a cyano group.
mol | StopGo FLuc | 2A Renilla
COCC(=O)N1CCN(c2oc(-c3ccco3)nc2C#N)CC1 | 3% | -8%
N#Cc1ccccc1NC(=O)c1cnc2ccccc2n1 | 177%[activator] | -9%
CCOc1ccc(/C=C/c2nc(C#N)c(NC(C)c3ccccc3)o2)cc1 (stereo not given) | 9% | 21%
CCCC(=O)N1CCN(c2nc(C)c3c(c2C#N)CCCC3)CC1 | ? | ?

A second format for part of the listing above.
> Cc1c(Cl)ccc(S(=O)(=O)N2CCC(C(=O)O)CC2)c1Cl
  StopGo FLuc: 7%	2A Renilla: 0%

> Cc1ccc2c(c1)-c1ccccc1C2=Nc1ccc2c(c1)Cc1ccccc1-2
  StopGo FLuc: 70%[activator]	2A Renilla: 5%

Next section.
mol | StopGo FLuc | 2A Renilla
COc1ccc(/C=C2/CN(Cc3ccc(OC)cc3OC)C3=N[C@H](c4ccccc4)CC(=O)N32)cc1 | -12% | 1%
CC(C)CC(NC(N)=O)C(=O)NCc1cccc(C(F)(F)F)c1 (stereo not given) | 4% | 8%
COc1ccc(C(=O)CC2(O)C(=O)N(Cc3cccc(C(F)(F)F)c3)c3ccccc32)cc1 (stereo not given) | -21% | -3%
CC(C)[C@H](NC(=O)OC(C)(C)C)C(=O)NC[C@H](CC(=O)O)c1ccc(Cl)cc1 | 5% | -3%
COc1ccc(Nc2nc(Nc3ccc(C)c(Cl)c3)c3nccnc3n2)cc1 | 81%[activator] | 17%
Cc1ccc(C(=O)N(C)C2CCCCC2)cc1Br | 192%[activator] | 28%
COc1ccc(CNC(=O)C2CCN(S(=O)(=O)c3c(C)noc3/C=C/c3ccccc3F)CC2)cc1 | -18% | -4%
O=C(/C=C/c1cnc2ccccc2n1)NCc1ccccc1 | 169%[activator] | 14%
Cc1ccc(Cl)cc1N1CCN(C(=O)c2ccc(C)c(-n3c(C)nc4cccnc43)c2)CC1 | ? | ?
CCOc1ccc(NC(=O)Cn2c(=O)n(Cc3nc(-c4ccccc4)no3)c(=O)c3ccccc32)cc1 | -17% | -11%
CCc1ccc(C(=O)Oc2ccc(Br)cc2)cc1 | 12% | 0%
Cc1ccc(-n2ncc3c2ncn2nc(-c4cccs4)nc32)c(C)c1 | 94%[activator] | -3%
CCCOc1ccc(C2c3c(-c4ccccc4O)n[nH]c3C(=O)N2CCc2ccccc2)cc1OCC (stereo not given) | -1% | -7%
CC(=O)Nc1cccc(NC(=O)CSc2nc3ccccc3o2)c1 | 15% | -10%
Brc1ccc(-c2nnc(COc3cccc(-n4cnnn4)c3)o2)o1 | 6% | -12%
O=C(CCOc1ccc(Cl)cc1)N1CCC(c2nnc3n2CCC3)CC1 | 9% | 5%
O=C(Cn1nc(-c2ccccc2)c2cnc3ccccc3c21)Nc1ccccc1 | -12% | -11%
CC(C)CCn1c(NCCCO)nc2c1c(=O)[nH]c(=O)n2C | 5% | 2%
CCOC(=O)c1oc2cc(O)ccc2c(=O)c1-c1nc2ccccc2s1 | 149%[activator] | 13%
Cc1cccc(C)c1NC(=O)CO/N=C/c1ccccc1O | 8% | 21%
CCOC(=O)c1scc(-c2ccc(C)cc2)c1S(=O)(=O)Nc1ccccc1C | 4% | 35%[activator]
CC(C)(C)C1=N/C(=C/c2ccc(OC(F)F)cc2)C(=O)O1 | 24% | 14%
N#Cc1ccccc1NC(=O)CN(Cc1ccco1)C1CCS(=O)(=O)C1 (stereo not given) | -8% | -12%
CCCn1c(=O)c2sccc2n2c(CCCC(=O)Nc3ccccc3F)nnc12 | 3% | 10%
COc1ccc(-c2noc(CSCC(=O)Nc3ccc(C)cc3Br)n2)cc1OC | -24% | -10%
Cc1ccc(CNC(=O)c2ccc(=O)[nH]c2)s1 | 0% | -8%
N#Cc1c(NC(=O)CCn2nnc(-c3ccc(Br)cc3)n2)sc2c1CCCC2 | -4% | -14%
COc1ccc(S(=O)(=O)c2c(C)c(C)n(C(C)C)c2NC(=O)C2CC2)cc1 | 2% | 11%
COCCn1c(C)cc(C(=O)CSc2nnc(Nc3cccc(C)c3)s2)c1C | 0% | -5%
COc1ccc(C(CNC(=O)c2oc3cc(C)c(Cl)cc3c2C)N2CCCCC2)cc1 (stereo not given) | -16% | -7%
O=C(CCCn1c(=O)c2cccn2c2ccc(Br)cc21)N1CCN(c2ccccn2)CC1 | ? | ?
Cc1ccccc1NC(=O)Nc1cccs1 | 0% | 98%[activator]
Cc1cc(C)cc(C(=O)n2nc(C)c(S(=O)(=O)N3CCCCCC3)c2C)c1 | -10% | -12%
Cc1ccccc1C(=O)NCC(c1ccc(N(C)C)cc1)N1CCCC1 (stereo not given) | 28% | -4%
COc1ccc2c(c1)c1c(c(=O)n(-c3ccc(F)c(Cl)c3)c(=O)n1CC(N)=O)n2C | -7% | -8%
O=C(O)c1ccccc1-c1ccco1 | 6% | -10%
CCCCOc1ccc(C(=O)NCC(c2ccc(Cl)cc2)N2CCOCC2)cc1 (stereo not given) | -18% | -6%
CCCc1cc(=O)oc2cc(OCC(=O)NCC(C)C)ccc12 | 13% | 2%
Cc1[nH]c2ccccc2c1C(=O)C(=O)Nc1ccc(Cl)c(Cl)c1 | 69%[activator] | 16%
CC(Oc1ccc(Br)cc1)c1nc(-c2cccnc2)no1 (stereo not given) | 9% | 1%
COc1ccc(NC(=S)N2CCN(CCO)CC2)c(OC)c1 | 12% | 8%
CCOc1ccccc1CNC(=O)C1CCN(C(=O)N2CC(CC)Oc3ccc(C)cc32)CC1 (stereo not given) | ? | ?
COc1ccc(-c2cc(C(=O)NC(C)(C)C)c3ccccc3n2)c(OC)c1 | -4% | 2%
Cc1cnc2c(S(=O)(=O)N3CCCC3C(=O)N(C)C)cccc2c1 (stereo not given) | -15% | 4%
O=C(O)c1cc(O)c(O)c(O)c1 | 8% | 21%
Cc1cccc(OCC(O)Cn2c(NCCN(C)C)nc3c2c(=O)n(C)c(=O)n3C)c1 (stereo not given) | -3% | -10%

Source: PubChem BioAssay (National Center for Advancing Translational Sciences (NCATS))

Only part of the results is shown; the hit share may differ from the screen's.
